GIV-Gai inh: blocks GIV peptide binding to rat Galpha-i3 | P08753 | Galpha-i3/FITC-GIV peptide fluorescence polarization, 90 min; active compounds read low; scaled: aluminum fluoride 0%, vehicle 100% | percent of control (FP), % (concentration not given with the values) | hit rate 0.42% among 210,000 | AID 1224905;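 active means replicate mean at 85% of control or lower, very high polarization wells dropped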;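 further: wells of about 15 µL received 100 nL stock; the first replicate is given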
Target sequence (P08753 whole entry, looked up): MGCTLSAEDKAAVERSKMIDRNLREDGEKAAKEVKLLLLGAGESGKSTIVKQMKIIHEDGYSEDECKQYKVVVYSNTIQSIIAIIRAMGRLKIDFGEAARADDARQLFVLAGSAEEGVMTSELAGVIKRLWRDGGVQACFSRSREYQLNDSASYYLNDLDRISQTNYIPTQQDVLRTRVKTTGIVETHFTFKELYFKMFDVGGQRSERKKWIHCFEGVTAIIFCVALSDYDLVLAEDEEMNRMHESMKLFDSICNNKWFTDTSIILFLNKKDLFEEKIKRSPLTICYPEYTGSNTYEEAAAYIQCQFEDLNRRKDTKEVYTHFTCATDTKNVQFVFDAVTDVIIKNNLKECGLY
HCMV UL50-53 inh: disrupts HCMV UL50-UL53 complex binding. inhibition, % (concentration not given with the values). hit rate 0.15% among 190,000. AID 1918969. HTRF UL50-UL53 interaction, normalized percent inhibition;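 active means both replicates at 50% or more, plus weaker picks with an unusually low signal ratio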;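 further: stock transfer was 100 nL into about 20 µL; 0% = negative control wells and 100% = wells with untagged competitor protein; inactives centre near -12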
Sa growth 42C: blocks Staphylococcus aureus growth. S. aureus RN4220 growth, OD600, 20 h, 42 °C; active compounds read low. hit rate 0.53% among 170,000. AID 720641. relative growth, % (concentration not given with the values);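 active means growth at 42 °C up to 50% and 20 or more points under that at 30 °C, or under 10% at both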;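 further: 300 nL library stock went into each well; scaled to the means of positive and negative controls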
Sa growth 42C second temp: second read-out of Sa growth 42C, no call of its own (marks repeat the call); relative growth, %; measured here: growth at 30 °C;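 optical density after 20 h as mean of two plates; 100% = untreated growth and lower means inhibition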
* marks the source's active call; other numbers are inactive results; nt = not tested or not shown.

SMILES	GIV-Gai inh	HCMV UL50-53 inh	Sa growth 42C	Sa growth 42C second temp
CCC(=O)Nc1ccc(C(=O)NCC(=O)OC)cc1	105	-3	98	100
CCCCCC1CCN2c3c1cc(C(=O)O)cc3C1C=CCC1C2c1ccc(Br)cc1 (stereo unspecified)	120	-21	nt	nt
O=C(O)c1cccc2ncccc12	103	-16	109	91
O=C(NCc1ccc(Cl)cc1)c1ccc(CSCc2cccc(Cl)c2)o1	105	nt	92	100
CC1(C)Cc2c(sc3nc(SCC(=O)O)n(-c4ccccc4)c(=O)c23)CO1	104	-3	nt	nt
O=C(NCCCN1CCOCC1)c1cc(-c2ccc(F)cc2)on1	97	0	83	86
CCc1cccc(C)c1N1C(=O)CC(C)C1=O (stereo unspecified)	101	-33	90	82
CCN(CC)CP(=O)(c1ccccc1)c1ccccc1	104	12	118	90
CC(C)(C)P(=NC(=O)COc1ccccc1)(N1CCCCC1)N1CCCCC1	nt	-18	103	98
O=C(Cc1cccc(F)c1)N1CCN(S(=O)(=O)c2ccc3c(c2)OCCO3)CC1	nt	-21	76	95
CC(=O)NNc1ccc2nc(C)sc2c1	107	-15	95	81
O=C(Nc1ccc(OC(F)(F)F)cc1)c1ccccc1-n1cnnn1	nt	-4	82	86
O=C(COCc1cc(-c2ccco2)on1)Nc1cc(Cl)ccc1O	104	nt	109	66
Cc1[nH]n(-c2ccccc2)c(=O)c1N=Nc1ccccc1C(=O)N1CCCCC1	105	-24	89	80
O=C1NC(CCC2CCCCC2)Oc2ccccc21 (stereo unspecified)	nt	11	112	100
COc1cccc(-c2noc(Cn3cnc4c(nnn4-c4ccccc4OC)c3=O)n2)c1	104	-28	nt	nt
COc1ccccc1NC(=O)C1CCCN(S(=O)(=O)c2cnc[nH]2)C1 (stereo unspecified)	97	3	94	96
COC(=O)CN1C(=S)N(C)C(=O)/C1=C/c1ccc(-c2ccc(Cl)cc2)o1	200	nt	95	76
CN(C)CCCn1c(-c2ccccc2)cc(=S)c2c1CCCC2	104	-23	97	93
OCc1cn(-c2ccccc2)nn1	nt	-4	101	85
COC(=O)c1c(NC(=O)CCS(=O)(=O)c2ccc(F)cc2)sc(C)c1C	105	-27	94	89
Oc1ccc(/C=N/n2cc(-c3ccccc3)[nH]c2=S)cc1	nt	-55	71	81
CCC(CC)C(=O)Oc1coc(CSc2nc(C)cs2)cc1=O	103	-21	104	81
O=C(CSc1ccc2c(c1)OCCO2)N1CCc2ccccc2C1	nt	-8	94	89
CCCCNc1c2c3c(cccc3[nH]c1=O)C(=O)c1ccccc1-2	-48*	-58	103	84
O=C(CSCCCc1ccccc1)NC1CCS(=O)(=O)C1 (stereo unspecified)	nt	-21	119	96
CCOC(=O)c1ccc2nc(C)c(C)nc2c1	104	-39	105	87
CCc1ccc(-c2nc(CN3CCC(C(=O)NCc4cccs4)CC3)c(C)o2)cc1	99	-5	122	97
CC(C)CS(=O)(=O)C1=NN2C(=N)/C(=C\c3ccco3)C(=O)N=C2S1	109	-70	77	76
Cc1cc2c(cc3n2CC(C)(C(=O)NC2CCCCC2)N(CCCN(C)C2CCCCC2)C3=O)o1 (stereo unspecified)	100	-16	nt	nt
COC(=O)c1cc(C(=O)Nc2ccc3c(c2)OCCO3)c(=O)[nH]c1C	105	5	nt	nt
Cc1cccc(C)c1N1CC(c2nc3ccccc3n2CC(=O)OC(C)C)CC1=O (stereo unspecified)	106	-17	106	89
CCN(c1ccccc1)c1nnc(NC(=O)Nc2cccc(OC)c2)s1	107	-2	92	94
COC(=O)N(C)CC1Cc2ccccc2O1 (stereo unspecified)	101	nt	114	90
Cc1ccccc1S(=O)(=O)NC1=NCCCCC1	nt	-22	104	97
CC(C)CC(C(=O)O)N1C(=O)C2C3c4ccccc4C(c4ccccc43)C2C1=O (stereo unspecified)	nt	-4	131	87
C1=C(c2ccccc2)Nc2ncnn2C1c1ccccc1 (stereo unspecified)	nt	-16	152	85
COC(=O)c1sc(SC)c(-c2ccn[nH]2)c1C	102	-26	118	91
Cn1c2c(c3ccccc31)CCc1nonc1-2	102	-33	116	89
CCc1ccc2nc(N(CCN(C)C)C(=O)C3COc4ccccc4O3)sc2c1 (stereo unspecified)	109	nt	101	88
Cc1cc(C(=O)CSc2ccc(S(=O)(=O)N3CCN(C)CC3)cn2)c(C)n1C1CC1	nt	4	108	107
CCOC(=O)c1nnc2c(Br)c(C)nn2c1C	106	-137	94	89
O=C(CN1C(=O)C2C3C=CC(C3)C2C1=O)NCC12CC3CC(CC(C3)C1)C2 (stereo unspecified)	nt	1	111	93
Cc1ccc(C(=O)Nc2nnc(S(=O)(=O)N3CCN(c4ccc(F)cc4)CC3)s2)cc1	102	-13	102	95
Cc1nn2c(=O)cc(COC(=O)c3cccc(NC(=O)c4cccs4)c3)nc2s1	99	nt	89	89
O=C(NC1CCCCC1)C(c1ccc(F)cc1)N(Cc1ccco1)C(=O)c1ccccn1 (stereo unspecified)	102	-19	106	94
CC(=O)Nc1cccc(Nc2ncnc3c2cnn3C)c1	102	-14	99	87
COc1ccc(/C(C#N)=C/c2ccc3c(c2)OCO3)cc1OC	99	nt	95	76
O=C(CCCc1nnc2c(=O)n(-c3ccc(Cl)cc3)ccn12)N1CCc2ccccc2C1	115	-8	104	96
N=C1S/C(=C\c2ccc(-c3ccccc3C(=O)O)o2)C(=O)N1c1ccc2c(c1)OCO2	108	-90	nt	nt
Cc1nc2ccccc2c2oc(C(=O)NCCCN3CCC(C)CC3)cc12	100	-11	94	88
CCCNc1ncnc2onc(C)c12	105	nt	79	96
Cc1ccc(Cl)cc1N1CCN(C(=O)/C=C/c2ccc(S(=O)(=O)NCc3ccco3)cc2)CC1	nt	0	114	94
O=C(O)Cn1c(=O)oc2cc(S(=O)(=O)N3CCCCCC3)ccc21	105	-4	80	93
CC1(C)CC(=O)C(Sc2ccccc2)=C(O)C1	104	3	97	95
CC(=O)Nc1ccc(C(=O)OCC(=O)C(C)(C)C)cc1	nt	-19	110	85
O=C(NCCc1c[nH]c2ccccc12)c1ccc(N2CCCCC2)c(S(=O)(=O)N2CCCCC2)c1	104	-16	nt	nt
CCn1cc(C(=O)NC2CCCC2)c(=O)c2cc(S(=O)(=O)N3CCCCC3)ccc21	104	nt	103	93
CCc1ccc(-c2ccc(=O)[nH]n2)cc1S(=O)(=O)Nc1cc(C)ccc1C	104	-20	nt	nt
CCCCOc1ccc(C(=O)Nc2ccc3c(c2)CCCN3C(=O)c2cccs2)cc1	96	nt	92	91

(list continues)
SMILES	GIV-Gai inh	HCMV UL50-53 inh	Sa growth 42C	Sa growth 42C second temp
Cc1nc2c(=O)oc3ccccc3c2n1C(C)C	99	-4	105	61
COc1cc(C(=O)Nc2ccc(OCc3cc(=O)n4cccc(C)c4n3)cc2)cc(OC)c1OC	103	nt	110	102
O=C(NC1CCCC1)C1CCN(c2ncnc3c2sc2ncccc23)CC1	105	10	nt	nt
N#Cc1c(/N=C/c2c(O)[nH]c(=O)[nH]c2=O)sc2c1CCC2	nt	-5	81	90
COc1ccc(NC(=O)CC2C(=O)N(c3ccc(F)cc3)C(=O)N2Cc2ccc3c(c2)OCO3)cc1 (stereo unspecified)	101	-37	101	93
CCCCN(CC)C(=O)c1cn(CC)c2nc(C)ccc2c1=O	99	-21	92	83
Cc1ccc(CN2C(=O)CCC2C(=O)NCCCN2CCCCC2)cc1 (stereo unspecified)	104	-19	107	94
COc1ccc(NC(=O)[C@@H](NC(=O)c2ccc(C)cc2)C(C)C)cc1OC	nt	-32	85	89
Cc1ccc(Cl)cc1-n1ncc2c(N3CCN(Cc4ccccc4)CC3)ncnc21	103	nt	97	95
Cc1cc(C)nc(-n2nc(C)c3c2NC(=O)CC3c2cccc(O)c2)n1 (stereo unspecified)	103	-19	107	82
O/N=C1\CCCCc2c1[nH]c1ccc(C3CCCCC3)cc21	nt	-8	88	76
Cc1ccc2occ(CC(=O)Nc3nc4ccc(S(C)(=O)=O)cc4s3)c2c1	103	nt	95	88

An excerpt taken from the entries so far, for reference:
SMILES	GIV-Gai inh	HCMV UL50-53 inh	Sa growth 42C	Sa growth 42C second temp
CCC(=O)Nc1ccc(C(=O)NCC(=O)OC)cc1	105	-3	98	100
CCCCCC1CCN2c3c1cc(C(=O)O)cc3C1C=CCC1C2c1ccc(Br)cc1 (stereo unspecified)	120	-21	nt	nt
O=C(O)c1cccc2ncccc12	103	-16	109	91
O=C(NCc1ccc(Cl)cc1)c1ccc(CSCc2cccc(Cl)c2)o1	105	nt	92	100
CC1(C)Cc2c(sc3nc(SCC(=O)O)n(-c4ccccc4)c(=O)c23)CO1	104	-3	nt	nt
O=C(NCCCN1CCOCC1)c1cc(-c2ccc(F)cc2)on1	97	0	83	86
CCc1cccc(C)c1N1C(=O)CC(C)C1=O (stereo unspecified)	101	-33	90	82

Fetched by structure from the list above, two records:
SMILES	GIV-Gai inh	HCMV UL50-53 inh	Sa growth 42C	Sa growth 42C second temp
COc1cc(C(=O)Nc2ccc(OCc3cc(=O)n4cccc(C)c4n3)cc2)cc(OC)c1OC	103	nt	110	102
Cc1ccc(CN2C(=O)CCC2C(=O)NCCCN2CCCCC2)cc1 (stereo unspecified)	104	-19	107	94

The listing picks up with the 4 entries that preceded the break.
SMILES	GIV-Gai inh	HCMV UL50-53 inh	Sa growth 42C	Sa growth 42C second temp
Cc1ccc(Cl)cc1-n1ncc2c(N3CCN(Cc4ccccc4)CC3)ncnc21	103	nt	97	95
Cc1cc(C)nc(-n2nc(C)c3c2NC(=O)CC3c2cccc(O)c2)n1 (stereo unspecified)	103	-19	107	82
O/N=C1\CCCCc2c1[nH]c1ccc(C3CCCCC3)cc21	nt	-8	88	76
Cc1ccc2occ(CC(=O)Nc3nc4ccc(S(C)(=O)=O)cc4s3)c2c1	103	nt	95	88
COc1cccc(-c2nc(C(N)=O)c3c(n2)n(-c2cccc(OC)c2)c(=O)n3C)c1	106	-13	111	94
CCOc1ccc(/C=C2\SC(=S)N(CCCC(=O)N(CCO)c3ccccc3)C2=O)cc1	109	-10	nt	nt
COc1ccc(N2CCN(C(=O)CSc3nc(-c4ccccc4)no3)CC2)cc1	106	nt	110	84
CC(C)(C)NC1=C(C(=O)c2ccccc2)N(CC(=O)c2ccccc2)S(=O)(=O)c2ccccc21	105	nt	80	47
CCC(CC)C(=O)Nc1ccc(OCc2cc(=O)n3c4c(sc3n2)CCCC4)cc1	118	4	90	102
O=C(O)c1cnc[nH]c1=O	95	-7	nt	nt
O=C1NC(=Nc2ccc(Br)cc2)SC1Cc1ccccc1 (stereo unspecified)	102	-23	nt	nt
Cc1ccc(N2C(=O)CCS2(=O)=O)cc1S(=O)(=O)NC1CCCC1	103	-15	nt	nt
COCCN(Cc1ccccc1)C(=O)Cc1c(C)noc1C	nt	-14	106	105
CCCNC(=O)Cn1ncc2c3ccccc3n(Cc3ccccc3)c2c1=O	104	nt	94	90
CCOc1ccc(-c2cc(CCCC(=O)Nc3ccc(CC)cc3)no2)cc1	101	nt	85	88
O=C1N2CCSC2=NC1(Nc1nccs1)C(F)(F)F (stereo unspecified)	104	-15	111	93

Some of these compounds in order of the Sa growth 42C value, ascending:
smiles | GIV-Gai inh | Sa growth 42C | Sa growth 42C second temp
Cc1[nH]n(-c2ccccc2)c(=O)c1N=Nc1ccccc1C(=O)N1CCCCC1 | 105 | 89 | 80
Cc1ccc2occ(CC(=O)Nc3nc4ccc(S(C)(=O)=O)cc4s3)c2c1 | 103 | 95 | 88
CCOC(=O)c1ccc2nc(C)c(C)nc2c1 | 104 | 105 | 87
CC(=O)Nc1ccc(C(=O)OCC(=O)C(C)(C)C)cc1 | nt | 110 | 85

(continued)
SMILES	GIV-Gai inh	HCMV UL50-53 inh	Sa growth 42C	Sa growth 42C second temp
COC(=O)c1ccc2c(c1)N(Cc1cc(C)ccc1C)C(=O)c1ccccc1S2=O (stereo unspecified)	99	2	90	93
CCCn1nnc2cc(C(=O)Nc3ccc(S(N)(=O)=O)cc3)ccc21	101	7	nt	nt
COc1ccc(CC(=O)Nc2c(C(=O)Nc3ccc(F)cc3)oc3ccccc23)cc1OC	107	-15	101	88
Cn1c(CCNC(=O)C2CC2)nc2cc(NC(=O)C(C)(C)C)ccc21	106	-33	nt	nt
O=C1NC(=Nc2ccccc2)SC1Cc1ccccc1 (stereo unspecified)	104	-6	nt	nt
CNS(=O)(=O)c1cn(CC(=O)N2CCN(c3cccc(C)c3C)CC2)cc1S(=O)(=O)NC	102	nt	108	91
COc1cccc(N(C)C(=O)c2ccc(Cl)c(S(=O)(=O)N(C)C)c2)n1	nt	20	108	105
CCCOc1ccc(CNC(=O)CN2C(=O)c3cccnc3Oc3ccc(C)cc32)cc1	104	nt	104	88
CCC1(CC)COC2(OC1)C(=O)Nc1ccc(F)cc12	102	-23	95	81
CC(=O)C1=C(c2ccc(Cl)c(Cl)c2)N(C(C)=O)n2c(C)nnc2S1	98	nt	109	101
CCc1nn2c(=O)cc(COC(=O)CNC(=O)c3ccccc3)nc2s1	103	nt	95	98
CN(Cc1ccc(Br)s1)Cc1cc2c(cc1O)OCO2	nt	-36	118	76
CC(C)Oc1ccc(CN2CCc3nc(Nc4ccc5c(c4)OCCO5)ncc3C2)cc1	101	nt	109	96
